Yeast UUG start: alters start codon recognition fidelity in yeast; S. cerevisiae UUG-firefly luciferase reporter, luminescence/redox ratio; activity score, % at 18.7 µM; 350,000 compounds, 0.13% hits;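 active = replicate mean at a twofold rise or more, about +100% in these data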;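 note: firefly luciferase made from a UUG start codon reports start codon fidelity; reporter light over untreated wells divided by growth signal over untreated wells; some hits fall short of that in this replicate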
MT1-MMP act inh: inhibitors of human MT1-MMP activation; HT1080 RFP-PRO-GFP cells, GFP/RFP ratio fluorescence, overnight; percent of plate control window, DMSO zero; GFP/RFP ratio change, % at 20 µM; 360,000 compounds, 0.061% hits; AID 651647;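 active = GFP/RFP ratio change of at least 30% with cell ATP level not reduced by more than half and red fluorescence within 50% of control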; note: strong numbers were not always called active
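Compound: 20 µM single dose, 1% DMSO / System: HT1080 RFP-PRO-GFP cells / Controls: DMSO and RFP-L50D-GFP cell wells / Read-out basis: GFP/RFP fluorescence ratio / Schedule: overnight compound exposure at 37 °C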
Rce1 inhib: yeast Ras-converting enzyme inhibition; yeast membranes, quenched prenylated peptide cleavage fluorescence; AID 2563; 290,000 compounds, 0.27% hits; calls only;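 active = fall in fluorescence gain of 50% or more versus controls, with final raw signal at or below 3038400; inconclusive = same 50% fall but final raw signal above 3038400; inactive = fall in fluorescence gain under 50%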;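 note: plate controls were neutral control wells for no effect and wells lacking membranes for full effect; tested at 10 µM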
Target sequence (Q03530 whole entry, looked up): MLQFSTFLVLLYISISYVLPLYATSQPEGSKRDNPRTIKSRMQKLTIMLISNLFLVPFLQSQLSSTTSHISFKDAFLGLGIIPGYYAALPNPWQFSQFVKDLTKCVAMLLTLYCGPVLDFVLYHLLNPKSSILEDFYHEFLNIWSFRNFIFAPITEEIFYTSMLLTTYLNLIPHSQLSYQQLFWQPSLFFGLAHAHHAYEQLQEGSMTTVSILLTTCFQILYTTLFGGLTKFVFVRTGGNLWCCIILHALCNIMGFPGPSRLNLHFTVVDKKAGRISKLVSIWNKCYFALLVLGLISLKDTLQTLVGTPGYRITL
eIF4H FP inh: inhibitors of RNA binding by human eIF4H | Q15056 | eIF4H fluorescence polarization binding assay | inhibition, % at 35 µM | 290,000 compounds, 0.94% hits;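 active = 50% or more with normal probe brightness, or confirmed in later tests; inconclusive = above 50% with abnormal brightness, or retests that disagree; inactive = below 50% or failed in later tests; about a fifth of its hits are not listed in these tables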;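 note: calls also rest on retests at 20 µM and on dose response follow-up; 0% = protein and probe with vehicle and 100% = probe without protein; strong numbers were not always called active; many hits fall short of the cut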
CSC inhib: cancer stem cell inhibition; inhibition, % at 7.5 µM; 300,000 compounds, 1.1% hits; cancer stem cell-like cells viability, luminescence;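 active = mean at 75% or more and at least half the replicates too; inconclusive = mean and replicates disagree; tested in HMLE shEcad cells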;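 note: 0% = median of negative and 100% = median of positive control wells; the first replicate is given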
PABP FP inh: PABP-poly(A) binding inhibition | inhibition, % at 35 µM | PABP-poly(A) RNA binding, fluorescence polarization | 290,000 compounds, 1% hits | P11940;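 active = 50% or more with normal probe brightness, or confirmed in later tests; inconclusive = above 50% with abnormal brightness, or retests that disagree; inactive = below 50% or failed in later tests; about a fifth of its hits are not listed in these tables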;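 note: calls also rest on retests at 20 µM and on dose response follow-up; controls were probe without protein and protein plus probe with vehicle; some compounds called inactive have numbers as strong as hits; many hits fall short of the cut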
Target sequence (P11940 whole entry, looked up): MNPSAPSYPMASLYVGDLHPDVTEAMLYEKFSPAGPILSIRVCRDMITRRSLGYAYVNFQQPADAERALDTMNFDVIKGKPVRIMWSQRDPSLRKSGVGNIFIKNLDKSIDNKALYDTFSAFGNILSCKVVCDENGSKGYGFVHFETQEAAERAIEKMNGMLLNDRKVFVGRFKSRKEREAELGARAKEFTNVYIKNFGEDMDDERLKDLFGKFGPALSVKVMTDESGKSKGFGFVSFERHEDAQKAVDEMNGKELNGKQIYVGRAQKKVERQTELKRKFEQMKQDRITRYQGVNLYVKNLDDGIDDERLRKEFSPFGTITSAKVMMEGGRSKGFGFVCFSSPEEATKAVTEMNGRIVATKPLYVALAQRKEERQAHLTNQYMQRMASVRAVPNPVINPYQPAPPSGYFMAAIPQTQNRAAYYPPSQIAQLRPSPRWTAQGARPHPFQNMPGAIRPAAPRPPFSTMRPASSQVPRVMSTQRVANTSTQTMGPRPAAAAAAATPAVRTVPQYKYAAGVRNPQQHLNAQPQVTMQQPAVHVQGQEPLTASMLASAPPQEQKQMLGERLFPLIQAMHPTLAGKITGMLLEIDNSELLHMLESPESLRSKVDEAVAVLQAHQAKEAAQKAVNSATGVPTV
Env fusion inh: blocks HIV Env-driven cell-cell fusion; HeLa-JRFL Env/CEM21 cell fusion, luciferase; inhibition, % at 12.3 µM; 360,000 compounds, 1.1% hits;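 active = mean replicate inhibition score of at least 50 and every replicate individually at or above 50; inconclusive = only one of the two criteria met; inactive = mean below 50 and not all replicates reaching 50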;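 note: 0% = plate neutral controls and 100% = maraviroc near 300 nM; one replicate is shown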
eIF4H FP inh retest: recorded beside eIF4H FP inh, whose call it bears; inhibition, %; compound at 20 µM; confirmation average;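 mean of two retest wells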
PABP FP inh retest: recorded beside PABP FP inh, whose call it bears; inhibition, %; compound at 20 µM; confirmation repeats;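 mean of two retest wells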
MT1-MMP act inh RFP: further read-out of MT1-MMP act inh, marked with its call; RFP signal change, %; measured here: RFP expression control read;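 0 = vehicle wells; hits needed this value within 50% of zero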
* = called active by the depositor; i = inactive; ? = inconclusive; / = not tested or not shown. The order is random; about 2.9% have a hit in one of these screens.

SMILES | Yeast UUG start | MT1-MMP act inh | MT1-MMP act inh RFP | Rce1 inhib | eIF4H FP inh | CSC inhib | PABP FP inh | Env fusion inh | others
OCC1(CCOc2ccccc2)CCN(Cc2ccc3c(c2)OCCO3)CC1 | -30 | -2 | -3 | i | 0 | -22 | -4 | -16
Nc1cc(Cl)cc2c1-c1ccc(Cl)cc1C2 | -9 | 0 | 0 | / | / | / | / | -11
COc1cc(Cl)c(C)cc1NC(=O)c1cc(S(=O)(=O)N(C)C)ccc1N1CCCC1 | -7 | 2 | 6 | i | -8 | 29 | 6 | -12
CC1CN(c2ccccc2)CCN1C(=O)c1cc(COc2c(F)cccc2F)on1 (stereo not given) | -2 | 2 | -3 | i | -2 | 6 | -4 | 9
CCOc1ccccc1CNC(=O)c1ccc2c(c1)N(CC)CCS2 | -9 | -3 | -3 | i | -7 | 26 | -1 | -1
Cc1cc(C)cc(OCC(=O)N/N=C/c2ccncc2)c1 | -17 | 1 | 1 | i | 9 | -8 | 48 | /
CC(C)NC(=S)N/N=C/c1cccs1 | -12 | 4 | 6 | i | -4 | -5 | 1 | -4
O=C(NCCc1c[nH]c2ccccc12)/C(=C\c1cccnc1)NC(=O)c1ccccc1Br | -31 | 1 | 0 | i | 2 | 1 | -4 | 17
COC(=O)c1ccc(CSc2nc3c(c(=O)n2-c2ccc(C)cc2)SCC3)o1 | -9 | 3 | -4 | i | -2 | / | -20 | -12
O=C(Nc1ccc(COc2ccccc2)cc1)Nc1cccc(C(=O)O)c1 | -32 | 0 | 2 | i | -4 | -5 | -2 | -5

Some of these compounds in order of SMILES length, largest number first.
SMILES | Yeast UUG start | MT1-MMP act inh | MT1-MMP act inh RFP | Rce1 inhib | eIF4H FP inh | CSC inhib | PABP FP inh | Env fusion inh | others
COC(=O)c1ccc(CSc2nc3c(c(=O)n2-c2ccc(C)cc2)SCC3)o1 | -9 | 3 | -4 | i | -2 | / | -20 | -12
O=C(Nc1ccc(COc2ccccc2)cc1)Nc1cccc(C(=O)O)c1 | -32 | 0 | 2 | i | -4 | -5 | -2 | -5
CCOc1ccccc1CNC(=O)c1ccc2c(c1)N(CC)CCS2 | -9 | -3 | -3 | i | -7 | 26 | -1 | -1
CC(C)NC(=S)N/N=C/c1cccs1 | -12 | 4 | 6 | i | -4 | -5 | 1 | -4

Further records
SMILES | Yeast UUG start | MT1-MMP act inh | MT1-MMP act inh RFP | Rce1 inhib | eIF4H FP inh | CSC inhib | PABP FP inh | Env fusion inh | others
Cn1nnnc1SCc1c(F)cccc1F | / | 4 | 4 | i | 4 | / | 3 | -32
Cn1c(-c2ccccn2)[n+](C)c2ccccc21 | -8 | -2 | 2 | i | -11 | -5 | -2 | -5
COc1ccc(C(=O)Nc2nc3c(s2)Cc2cc(OC)ccc2-3)cc1 | -3 | -8 | -19 | i | 15 | 4 | 28 | /
C=CCNC(=S)N/N=C/c1ccc(C(C)(C)C)cc1 | / | -7 | -3 | i | -6 | / | 12 | 5
COc1ccc(OC)c(S(=O)(=O)NCCc2csc(-c3cccnc3)n2)c1 | / | 1 | 1 | i | 0 | -23 | 5 | -47
O=C(Nc1nc2ccccc2[nH]1)c1ccc(Cl)c([N+](=O)[O-])c1 | -6 | 4 | -5 | i | -5 | -1 | -7 | -11
Cc1cccc(N2CCN(C(=O)c3c(-c4ccccc4Cl)noc3C)CC2)c1C | 16 | -4 | -14 | i | -9 | 60 | -6 | 23
COc1ccccc1N1CCN(C(=O)C2CCC(Cn3c(=S)[nH]c4ccccc4c3=O)CC2)CC1 (stereo not given) | -4 | / | / | i | -2 | 55 | 6 | -2
CN(C)C(=O)c1nnsc1Sc1ccc(Cl)cc1 | -6 | -1 | -2 | i | 20 | -7 | -9 | 1
COc1ccc(N=Nc2c(C)[nH][nH]c2=O)cc1 | / | 14 | 2 | / | -9 | 5 | 23 | -24
COc1cc(/C=C/C(=O)OCC(=O)N2CCN(C(=O)c3ccco3)CC2)ccc1O | / | 2 | 2 | i | 0 | -1 | -6 | 21
CNC(=O)c1cc2c(=O)n3cccc(C)c3nc2n(C(C)C)c1=N | 4 | 2 | 2 | i | 2 | 7 | -2 | -94
Cc1cc(C)c(S(=O)(=O)Oc2ccccc2[N+](=O)[O-])c(C)c1 | -11 | -13 | -15 | / | / | / | / | -2
O=C(Nc1ccccc1N1CCN(C(=O)c2ccccc2)CC1)c1cccc(Cl)c1 | -9 | 1 | -2 | i | 5 | 0 | -4 | -35
CCCCn1cnc2c(SCc3ccc(Br)cc3)nc(N)nc21 | -2 | 10 | -9 | / | / | / | / | 6
Cc1ccccc1NC(=O)NCCc1ccc(Cl)cc1 | -10 | 1 | 3 | i | 2 | 1 | -5 | -1
CSCCC(NS(=O)(=O)c1ccccc1)C(=O)OC(C)C(=O)Nc1ccc(Cl)cn1 (stereo not given) | -8 | -5 | 1 | / | / | -2 | / | -198
CCOC(=O)c1cccc(NC(=O)Cn2nc(C)n3cccc3c2=O)c1 | 12 | -4 | -3 | i | -7 | 8 | -9 | -8
O=C(O)c1ccc(N2C(=O)c3cccc(Oc4ccc(Cl)cc4)c3C2=O)cc1 | -17 | -1 | 4 | i | -6 | -3 | 7 | 4
CS(=O)(=O)Nc1cccc(C(=O)OCCCOc2ccc(F)cc2)c1 | 6 | 0 | -3 | i | 6 | -12 | -6 | 9
Cc1ccc(C(=O)Nc2ccccc2-c2ccccc2)cc1[N+](=O)[O-] | -5 | 1 | -5 | i | 7 | -8 | 8 | /
CCOC(=O)[C@H]1[C@H]2COc3ccc(OC)cc3[C@@H]2N2C(=O)c3cc(OC)c(OC)cc3NC(=O)[C@@]12C | -14 | 2 | -2 | / | / | 14 | / | 6
COc1ccc(OC)c(/C=N/NC(=O)c2cc3c(OC)c(OC)ccc3[nH]2)c1 | / | 8 | 3 | i | -8 | -5 | -5 | 16
Cc1ccc(C(=O)CCc2ccc(N)cc2)cc1 | -17 | 1 | 1 | i | -7 | 15 | 5 | -12
O=c1c2ccccc2cnn1-c1ccc(Cl)nn1 | / | -3 | -3 | i | 2 | -8 | 0 | -25
O=c1[nH]cnc2c1c(-c1ccccc1)cn2-c1cccc(Cl)c1 | 12 | 8 | 0 | i | -7 | 1 | -10 | -5
N#CCCN(CCC#N)C(=O)C1c2ccccc2Oc2ccccc21 | -10 | -71 | 14 | i | ? | -4 | ? | 5
Clc1ccc(Cl)c(Oc2ccc(Oc3nc(Cl)ccc3Cl)cc2)n1 | -26 | 4 | -2 | i | -8 | 16 | -1 | -20
Cc1nn(-c2cccc(Cl)c2)c2c1C(c1ccncc1)C(C#N)=C(N)O2 (stereo not given) | -8 | 10 | -2 | i | -2 | 31 | 45 | -19
CN(C)C(=O)CSc1n[nH]c(=O)n1CCc1ccccc1 | -7 | 5 | 4 | i | -5 | -10 | -2 | -15
CCOC(=O)NCc1cc(-c2nn(C)c(=O)c3ccccc23)ccc1C | -7 | 2 | -1 | i | -3 | 18 | 6 | /
CN(C)/C=C/C(=O)Oc1ccc(Cl)cc1Cl | / | 0 | 2 | i | -6 | 25 | 0 | 0
Cc1ccc(S(=O)(=O)NC(=O)Nc2ccc(F)cc2)cc1 | -20 | 1 | 5 | i | 0 | -1 | 8 | -13
CC(=O)OCCn1c(C)[n+](CCOC(C)=O)c2cc(Cl)c(Cl)cc21 | / | -2 | 2 | i | 8 | -9 | -9 | 17
CCCN(CCC)C(=O)CC(c1ccc(F)cc1)c1ccco1 (stereo not given) | -5 | -12 | -4 | i | 4 | -5 | -2 | 16
CCOC(=O)C1CCCN(C(=O)c2ccc([N+](=O)[O-])cc2)C1 (stereo not given) | / | 0 | 0 | i | 1 | -16 | -1 | /
O=C(CSc1nc2ccc(Cl)cc2[nH]1)c1cccs1 | / | 0 | 1 | i | 2 | -1 | 5 | -44
CCCC(=O)Nc1ccccc1NC(=O)CN(C)S(=O)(=O)c1ccc(C)cc1 | -16 | 0 | 2 | i | -5 | 18 | -1 | 12
Cc1ccn2cc(CCNS(=O)(=O)c3ccc([N+](=O)[O-])cc3)nc2c1 | / | 2 | 2 | / | -5 | -2 | -4 | -34
CCN(CC)CCCn1c(C)cc2c(c1=O)C(c1cccc(Cl)c1)C(C#N)=C(N)O2 (stereo not given) | -2 | -7 | -3 | / | -7 | / | -2 | /
O=C(c1ccc(Cl)cc1)c1oc2ccccc2c1CS(=O)c1ccccc1 (stereo not given) | 2 | -2 | -5 | i | -9 | 19 | 0 | 21
CCC(C)(C)c1ccc(OCC(=O)Nc2ccncc2)cc1 | -11 | 0 | 0 | i | 4 | 35 | 3 | -1
CC1=NOC(=O)/C1=C\c1ccc(-c2ccc(Cl)cc2Cl)o1 | -12 | -58 | -25 | i | 55* | / | 6 | -407 | eIF4H FP inh retest=59*;PABP FP inh retest=26
Cc1ccc2c(c1)[C@H]1[C@H](CO2)[C@H](c2ccccc2)[C@]2(C)C(=O)Nc3ccc(F)cc3C(=O)N12 | -7 | -17 | -13 | / | / | / | / | 20
CNc1ncc(Cc2ccccc2)s1 | -18 | -2 | 0 | i | 6 | -14 | 11 | /
COc1cc(SC)ccc1C(=O)Nc1cccc(S(=O)(=O)NC2=NCCC2)c1 | -11 | 1 | -11 | / | / | -6 | / | -9
CC(NC(=O)C12CC3CC(CC(O)(C3)C1)C2)c1ccc(Cl)cc1Cl (stereo not given) | -7 | -2 | -1 | i | -2 | -6 | 11 | -1
Cc1nc(NC(=O)c2ccccc2)sc1-c1cc(C(=O)O)nn1Cc1ccccc1 | -2 | 7 | 6 | / | / | / | / | 3
CCc1ccc(C(C)NC(=S)NC2CCCCC2)cc1 (stereo not given) | -20 | 1 | -8 | i | -2 | -17 | -2 | /
CCOC(=O)c1cc2c(=O)n3ccccc3nc2n(CC2CCCO2)c1=NC(C)=O (stereo not given) | 3 | 4 | 7 | / | -4 | -11 | -3 | -2

(further entries)
SMILES | Yeast UUG start | MT1-MMP act inh | MT1-MMP act inh RFP | Rce1 inhib | eIF4H FP inh | CSC inhib | PABP FP inh | Env fusion inh | others
CC(C)C(c1nnnn1C1CCCC1)N1c2ccccc2CC1C (stereo not given) | -18 | -10 | 0 | i | 7 | 10 | -11 | -54
CC(OC(=O)c1ccc(S(=O)(=O)NCc2ccco2)cc1)C(=O)Nc1ccccc1 (stereo not given) | / | 1 | 4 | / | / | 2 | / | 4
CN(Cc1cnccn1)Cc1cn(Cc2ccccc2)nc1-c1ccc2c(c1)OCO2 | / | 1 | 2 | i | -4 | -9 | 5 | 11
O=C(CCC1CCN(C(=O)c2ccccc2Cl)CC1)NCc1ccc(F)cc1 | -5 | 1 | -1 | i | -7 | -3 | -15 | -20
OC1CCN(Cc2nc(Cc3ccccc3Cl)no2)CC1 | -5 | 2 | 3 | i | 8 | / | 9 | 17
COc1nc(N(C)C)nc(N(OC)S(=O)(=O)c2ccccc2Cl)n1 | -24 | 1 | 3 | i | 1 | -5 | -3 | -58
CC(Cc1cccnc1)NC(=O)c1ccccc1OC1CCN(S(C)(=O)=O)CC1 (stereo not given) | / | 3 | 5 | i | -5 | 4 | -2 | -8
COCCN(Cc1cccs1)S(=O)(=O)c1ccc(-c2ccc(=O)[nH]n2)s1 | -19 | 1 | 2 | i | -8 | -3 | 0 | -6
CC(Sc1ccccc1F)C(=O)Nc1cccc(S(=O)(=O)N2CCOCC2)c1 (stereo not given) | 1 | 0 | -1 | / | / | -6 | / | /
O=C(CN1C(=O)c2ccccc2S1(=O)=O)NCc1cccnc1 | -16 | 3 | 6 | i | -11 | -6 | -3 | -14
O=C(Nc1ccccc1N1CCN(C(=O)c2ccccc2)CC1)c1cc(Br)ccc1Cl | 5 | -3 | -14 | i | -3 | 2 | -8 | 8
